# miR-21 FLuc – miR-21 reporter, rising signal; HeLa miR-21 FLuc reporter, luciferase, 48 h; Potency, µM (series often up to 38.3 µM), without a hit: top-dose reporter change, positive = more light; 340,000 tested, under 10 active; active = well fitted rising curve with a large enough effect; inconclusive = small, poorly fitted or top-dose-only effect; inactive = no such curve, though single readings can be large or run the other way;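 also: % of control where 0% means no effect; miR-21 action dims this reporter so a rising signal means less miR-21 action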
#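 Luminescence from a firefly luciferase reporter carrying a miR-21 binding site downstream, stably expressed under a CMV promoter in HeLa cells that make miR-21 endogenously, reports miRNA modulation after 48 h compound exposure up to approximately 40uM final.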
# GLA inh pH 4.5 – alpha-galactosidase A (human) inhibition, pH 4.5; P06280; purified enzyme, 4-MU-alpha-Gal fluorescence, pH 4.5; activity change, negative = inhibition, % at 105 µM; 230,000 tested, under 10 active; inconclusive = small, poorly fitted or top-dose-only inhibition, or a rising curve; inactive = flat fitted curve, though single readings scatter; no compound was filed as active;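 also: 0% = full activity with enzyme and -100% = basal without enzyme; dose as in the result columns while the protocol names 77 µM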
# Target sequence (P06280 whole entry, looked up): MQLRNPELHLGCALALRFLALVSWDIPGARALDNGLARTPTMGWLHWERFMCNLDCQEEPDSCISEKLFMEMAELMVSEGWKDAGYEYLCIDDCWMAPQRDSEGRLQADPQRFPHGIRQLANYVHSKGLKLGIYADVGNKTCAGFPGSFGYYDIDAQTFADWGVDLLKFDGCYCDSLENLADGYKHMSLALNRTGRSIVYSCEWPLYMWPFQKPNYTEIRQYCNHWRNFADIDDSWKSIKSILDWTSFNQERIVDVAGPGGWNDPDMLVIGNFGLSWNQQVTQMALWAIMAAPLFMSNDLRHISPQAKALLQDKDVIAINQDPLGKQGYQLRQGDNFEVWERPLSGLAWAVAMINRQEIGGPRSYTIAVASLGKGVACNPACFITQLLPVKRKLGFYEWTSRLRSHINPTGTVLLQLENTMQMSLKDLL
# Rango release inh – inhibitors of RanGTP-induced Rango-importin beta complex dissociation; O95149+P62826; Biochemical FRET Rango-importin beta, RanGTP-induced dissociation; Potency, µM (top dose mostly 46.1 µM), without a hit: at the highest dose activity change, negative = inhibition; actives 0.071% (n = 340,000); AID 540253; active means falling FRET ratio curve, often poorly fitted, with flat reads before Ran was added; inconclusive means other falling curves, or compound fluorescence or quenching; inactive means flat or rising ratio curve;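 also: potency is read from the fitted curve at half-maximal effect; % of control where 0% means no effect; nearly all actives have a fitted effect of over 45% in size; -100% = wells without RanGTP and RCC1; the record marks most hits as doubtful in a second field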
#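 Two FRET readings bracket the reaction: one 5 min after compound meets Rango–importin beta, another 45 min after RanGTP-RCC1 (0.6 uM Ran, 0.2 uM RCC1, 2 mM GTP) is added. Only the second defines inhibition.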
# Rango-impB inh – inhibitors of Rango-importin beta complex formation; Q14974; actives 0.031% (n = 340,000); Potency, µM (series often up to 92.2 µM), inactives show top-dose inhibition of complex formation; Rango CFP/YFP FRET sensor + importin beta, 45 min; AID 540263; active = rising FRET ratio curve, often small or poorly fitted; inconclusive = mostly compound fluorescence or quenching in the first reads; inactive = flat curves in all reads;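 also: potency is read from the fitted curve at half-maximal effect; 0% = DMSO wells and 100% = buffer wells lacking importin beta; nearly all actives have a fitted effect of over 15% in size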
#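 Inhibition scored from the CFP 486 nm/YFP 530 nm FRET ratio 45 min after adding 0.125 microM importin beta to 50 nM Rango biosensor preincubated 5 min with compound (room temperature, PBS with DTT, Tween-20, BSA). No-importin wells as positive control.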
# Active calls of the source: *; ? = inconclusive; / = not tested or not shown.
smiles,miR-21 FLuc,GLA inh pH 4.5,Rango release inh,Rango-impB inh
Cc1ccc(S(=O)(=O)NCC(=O)Nc2ccc3c(c2)OCCO3)cc1,2%,/,-8%,-1.8%
CN(C)S(=O)(=O)c1ccc(N2CCCC2)c(C(=O)Nc2nccs2)c1,/,/,-5%,-6.8%
CCN(CC)S(=O)(=O)c1ccc(N2CCN(CCOc3ccc(OC)cc3)CC2)nc1,3%,/,-8%,-3.0%
COC(=O)c1ccc(NC(=O)CSCC(=O)OCC(=O)c2ccc(Br)cc2)cc1,0%,10,10%,-1.3%
O=C(/C=C/c1ccc(F)cc1)NC(=S)NC1CCCCC1,5%,0,-8%,0.3%
Cc1ccc(C(=O)CCC(=O)OCC(=O)Nc2ccc3[nH]c(=O)[nH]c3c2)cc1,/,/,25%,-0.3%
Cc1cc(NC(=O)c2c([N+](=O)[O-])c(C)nn2C)no1,-2%,4,6%,1.2%
O=C(Nc1cccc2ncccc12)c1cccc(Br)c1,-6%,/,-13%,?
CC(=O)c1ccc(Nc2cc(C)nc3c(C)cccc23)cc1,14%,-7,-5%,2.3%
COc1cc(NC(=O)N[C@@H](CCSC)C(=O)O)cc(OC)c1,2%,0,-13%,0.3%
COc1cccc(CNc2ccc(S(=O)(=O)N3CCN(C)CC3)cn2)c1,/,/,-3%,-1.6%
CCOCc1c(C(=O)NC2=Nc3ccccc3NC(CC)=C2C(=O)OCC)oc2ccccc12,27%,-12,-16%,-2.7%
COc1ccc(CCNC(=O)c2[nH]c(C)c(C(C)=O)c2C)cc1OC,-1%,1,-5%,-0.5%
COc1ccc(CCC(=O)Nc2nnc(C(F)(F)F)s2)cc1,-1%,/,3%,2.1%
CCOC(=O)C1CCN(CC(=O)c2ccc(O)c(C)c2O)CC1,6%,/,-20%,?
CC(CCN(C)C)OC(=O)c1ccc(C(C)c2ccccc2)o1 (stereo unspecified),-14%,3,-20%,2.6%
O=C(NC1CCCCCC1)C(=O)NC1CCCC1,-13%,1,-11%,0.0%
CC(NC(=O)c1ccc(Cl)c(S(=O)(=O)N2CCCCCC2)c1)c1cccnc1 (stereo unspecified),/,/,9%,0.5%
CC(=O)NC1=NN(C(C)=O)C(C)(CCS(=O)(=O)c2ccc(Br)cc2)S1 (stereo unspecified),0%,-7,-7%,-3.3%
NC(=O)C1CCN(c2nc(-c3ccccc3Br)cs2)CC1,/,/,18%,-0.3%
CC(=O)N1CCN(Cc2nc3cc([N+](=O)[O-])ccc3n2C)CC1,2%,/,-4%,0.3%
O=C(NCc1cccc(F)c1)C1CCC(=O)N(C2CCCC2)C1 (stereo unspecified),-2%,/,?,0.2%
COc1ccc(-c2nnc(SCC(=O)Nc3ncc(C(F)(F)F)cc3Cl)n2CC(C)C)cc1,-3%,1,6%,-0.3%
Cc1ccc(S(=O)(=O)N(Cc2ccccc2)C(C)C)cc1,7%,/,7%,-2.1%
COc1ccc(C(=O)N(C)C2CCCc3ccccc32)cc1OC1CCN(C(C)C)CC1 (stereo unspecified),-9%,/,-10%,-1.3%
O=C(c1ccco1)N1CCN(c2nnc(-c3ccccc3)c3ccccc23)CC1,11%,2,11%,-0.3%
O=C(c1ccc(Cl)c(S(=O)(=O)N2CCOCC2)c1)N1CCN(c2ccccc2F)CC1,7%,/,-15%,?
CCN(C(=O)Cc1cccs1)c1nnc(-c2cccnc2)s1,-22%,-6,-1%,?
Cc1ccccc1N1CCN(C2CCCN(C(=O)CCC3(C)CC3)C2)CC1 (stereo unspecified),2%,/,7%,0.0%
N#Cc1nc(N2CCCCC2)nc(N2CCOCC2)n1,2%,-5,0%,0.1%
Cc1ccc(N=C2NC(=O)/C(=C\c3cccs3)S2)cc1C,-65%,4,3%,-0.9%
COC(=O)c1ccc(CN2C(=O)NC3(CCC(C)CC3)C2=O)cc1 (stereo unspecified),-41%,0,5%,4.4%
C/C(=N\NC(=O)C(c1ccccc1)c1ccccc1)c1ccccn1,6%,2,1%,-2.4%
CCC(C)NC(=O)CSC1=Nc2ccccc2C2=NC(CC(=O)NCc3ccc(F)cc3)C(=O)N12 (stereo unspecified),-1%,7,-7%,3.2%
Cc1ccc(-c2ccc(S(=O)(=O)NCc3ccco3)cc2)cc1,1%,13,0%,-0.7%
Nc1c(-c2ccccc2)cnn1-c1cccc([N+](=O)[O-])c1,-32%,-3,-27%,-2.6%

# Some of these compounds in order of their number in miR-21 FLuc, high to low.
smiles,miR-21 FLuc,GLA inh pH 4.5,Rango release inh,Rango-impB inh
O=C(c1ccc(Cl)c(S(=O)(=O)N2CCOCC2)c1)N1CCN(c2ccccc2F)CC1,7%,/,-15%,?
N#Cc1nc(N2CCCCC2)nc(N2CCOCC2)n1,2%,-5,0%,0.1%
Cc1ccc(-c2ccc(S(=O)(=O)NCc3ccco3)cc2)cc1,1%,13,0%,-0.7%
CCC(C)NC(=O)CSC1=Nc2ccccc2C2=NC(CC(=O)NCc3ccc(F)cc3)C(=O)N12 (stereo unspecified),-1%,7,-7%,3.2%
Nc1c(-c2ccccc2)cnn1-c1cccc([N+](=O)[O-])c1,-32%,-3,-27%,-2.6%

# (next part)
smiles,miR-21 FLuc,GLA inh pH 4.5,Rango release inh,Rango-impB inh
c1ccc2nc3c(nc2c1)OCC1CCCCN31 (stereo unspecified),-45%,/,-8%,5.5%
COc1cc(C2/C(=C(\O)c3ccc4c(c3)OCCO4)C(=O)C(=O)N2c2nnc(C)s2)cc(OC)c1OC (stereo unspecified),-4%,/,-16%,?
O=C(CN1C(=O)NC(Cc2c[nH]c3ccccc23)C1=O)Nc1ccc(F)c(F)c1F (stereo unspecified),/,/,-2%,-0.8%
COc1cccc(N=Cc2c(O)n(-c3cccc(C)n3)c(=O)c3ccccc23)c1,10%,-14,?,?
COc1ccc([C@@H]2[C@@H]3C(=O)N(C(C)(C)C)C(=O)[C@@H]3[C@]3(C)C(=O)N(c4cccc(Cl)c4)C(=O)N23)cc1,/,/,8%,-2.3%
CN1CCN(C(=S)Nc2cccc(S(=O)(=O)N(C)C)c2)CC1,-2%,8,-2%,1.5%
Cc1cc(Cl)c(Cl)cc1S(=O)(=O)NCCCn1ccnc1,-7%,/,16%,-3.8%
O=C(COC(=O)Cc1ccc(S(=O)(=O)N2CCOCC2)s1)Nc1ccc(OC(F)F)cc1,/,/,-19%,?
CCSCc1nnc(SCC(=O)c2ccc(OC)cc2)n1C,-11%,8,12%,-1.6%
COc1cccc(NC(=O)NC(C)C2CC3CCC2C3)c1 (stereo unspecified),-9%,-15,-15%,4.0%
Cc1cc(C)c(NS(=O)(=O)c2cccc3cccnc23)c(C)c1,0%,-15,17%,-0.4%
CCOc1ccc(Oc2ccccc2NC(=O)CSCC(=O)Nc2cc(C)on2)cc1,/,/,14%,-1.0%
Cc1c(NC(=O)C2C3C=CC(C3)C2C(=O)O)c(=O)n(-c2ccccc2)n1C (stereo unspecified),0%,2,-9%,3.7%
CN(C)c1ccc(C(=O)Nc2ccc(S(=O)(=O)Nc3nccs3)cc2)cc1,-16%,/,-12%,4.9%
COc1ccc(CNC(=O)Cn2nc([N+](=O)[O-])cc2C)cc1,-1%,/,?,0.4%
Cn1c(=O)c2ccccc2n(CC(=O)NCCC2=CCCCC2)c1=O,-7%,/,-9%,-1.1%
CCN(CC(=O)Nc1ccccc1OC)C(=O)CN1C(=O)NC(C)(c2ccc(C)cc2)C1=O (stereo unspecified),/,/,?,1.5%
CC(=O)Nc1nc2ccc(-c3nc4ccccc4o3)cc2s1,-49%,?,-8%,-1.1%
Cc1cc(N2C(=O)C(O)=C(C(=O)c3cc4ccccc4o3)C2c2ccc([N+](=O)[O-])cc2)no1 (stereo unspecified),-2%,/,11%,-3.7%
CCCN(Cc1cc2cc(OC)ccc2[nH]c1=O)C(=O)c1ccco1,3%,0,3%,0.6%
CCC(=O)Nc1cc2nn(-c3ccccc3)nc2cc1Cl,-50%,3,-6%,-0.1%
O=C(c1ccco1)N1CCN(c2ccnc3cc(Cl)ccc23)CC1,7%,-19,-18%,-0.5%
Cc1cc(C)n(Cc2ccc(F)cc2)c(=O)c1C#N,-1%,7,-9%,1.0%
COc1ccccc1CN1CCC(n2nccc2NC(=O)CCc2ccccc2)CC1,-2%,/,-21%,-0.5%
Fc1ccc(F)c(C2=NNC(=Nc3ccccc3F)SC2)c1,16%,7,-25%,-2.8%
Cc1c(OCC(=O)NCC2CCC(C(=O)O)CC2)ccc2c(-c3ccccc3)cc(=O)oc12 (stereo unspecified),-29%,/,7%,-0.4%
O=C(Cc1ccccc1)Nc1ccccc1C(=O)N1CCN(c2ccccc2)CC1,-7%,/,-16%,-4.7%
Cc1nc2c(C(=O)NCCC(C)C)c[nH]n2c(=O)c1Cl,0%,-4,4%,4.3%
CCCCC(=O)Nc1ccc(NC(=O)C2CC2)nc1,-14%,-6,-1%,2.3%
Cc1ccc(-n2c(-c3cc(C)n(C)n3)n[nH]c2=S)cc1,-7%,8,-5%,0.1%
CCCNC(=O)C1CCN(S(=O)(=O)c2cccs2)CC1,-8%,0,-5%,0.2%
Cc1cc(C(=O)OCC(=O)NCCc2ccccc2)c2ccccc2n1,/,/,-1%,0.7%
O=C(COC(=O)c1cc(Cl)ccc1[N+](=O)[O-])Nc1cccc2ccccc12,9%,-12,1%,-2.4%
COC(=O)/C=C1\C(=O)N(c2nc3ccc(OC)cc3s2)C(=S)N1c1ccc(F)cc1,-4%,-3,/,/
CC1CCc2c(sc3nc4n(c(=O)c23)CCS4)C1 (stereo unspecified),-34%,4,-10%,0.0%
COc1ccccc1OCc1nc(C#N)c(N2CC(C)CC(C)C2)o1 (stereo unspecified),-2%,-3,3%,-0.6%
CCCCOCCCNS(=O)(=O)Cc1ccccc1,-1%,-7,-5%,2.6%
COCCN(C(=O)COc1ccc(Cl)cc1)c1nnc(-c2cccnc2)s1,-5%,1,?,6.5%
CCOC(=O)c1sc(NC(=O)CSc2nnc(-c3ccc(OC)cc3)n2CCOC)nc1C,-9%,-2,6%,-0.3%
CC(C)C1(C)C(=O)N=C2c3ccccc3C(=O)N21 (stereo unspecified),-4%,8,3%,-5.2%
COc1ccc(/C=C/C(=O)O)cc1S(=O)(=O)N1CCCCC1,4%,-3,-8%,-1.0%
CCOc1ccc(NC(=O)CC2Nc3ccccc3NC2=O)cc1 (stereo unspecified),-22%,?,-19%,?
Clc1ccc(-c2cn(-c3ccccc3)c3[n+]2CCS3)cc1,29%,-3,-7%,-3.0%
COc1ccc(-n2c(SCC(=O)NCc3ccco3)nnc2-c2c[nH]c3ccccc23)cc1,-1%,2,-10%,2.6%
CC(C)c1ccc(-n2nnnc2SCC(=O)NC2CC2)cc1,/,/,18%,-1.0%
CCN1C[C@@H]2[C@@H]3C(=O)N(C)C(=O)[C@@H]3[C@](Cc3ccccc3)(C1=O)N2C(=O)c1ccccc1,/,/,-13%,2.9%
CC(=O)Nc1c(Br)cc2c(c1Br)Cc1cc(Br)ccc1-2,/,/,13%,-0.1%
CC(C)(C)NC(=O)NC(=O)CN1CCCCCCC1,-11%,7,-4%,-1.6%
COc1ccc(Cl)cc1NC(=O)C(C)N(C)Cc1cccc(Cl)c1Cl (stereo unspecified),-1%,-5,-11%,-2.2%
CCOc1ccccc1NC(=O)CCS(=O)(=O)c1cccs1,5%,/,11%,-0.1%
Cc1ccc(-c2nn(-c3cccc(F)c3)cc2CN2CCN(c3ccccn3)CC2)o1,16%,1,13%,-0.5%
COc1cccc(C2=CC(c3cccs3)n3nnnc3N2)c1 (stereo unspecified),-2%,7,-8%,?
O=C(CCC1CCCC1)Nc1cccn(Cc2ccccc2Br)c1=O,-1%,-7,12%,1.9%
O=C(N/N=C/c1cccc([N+](=O)[O-])c1)c1ccc(CN2CCOCC2)cc1,-10%,3,-4%,2.3%

# Only part of the results is shown; count on the stated rates, not on these rows.
